Screens deposited in PubChem by National Center for Advancing Translational Sciences (NCATS).
VDR inhibitor – Inhibitors of the vitamin D receptor (VDR): qHTS. VDR-SRC2-3 peptide fluorescence polarization, 2 h. Potency, µM, for inactives: max response, negative = inhibition, hits mostly inhibitors. 400,000 tested, 0.93% active. AID 504847, 2011; active means well fitted inhibition curve with a large enough effect; inconclusive means small, poorly fitted or top-dose-only effect, or another doubt; inactive means no such curve, though single readings can be large or run the other way; further: series mostly up to about 120 µM
Target sequence (P11473 whole entry, looked up): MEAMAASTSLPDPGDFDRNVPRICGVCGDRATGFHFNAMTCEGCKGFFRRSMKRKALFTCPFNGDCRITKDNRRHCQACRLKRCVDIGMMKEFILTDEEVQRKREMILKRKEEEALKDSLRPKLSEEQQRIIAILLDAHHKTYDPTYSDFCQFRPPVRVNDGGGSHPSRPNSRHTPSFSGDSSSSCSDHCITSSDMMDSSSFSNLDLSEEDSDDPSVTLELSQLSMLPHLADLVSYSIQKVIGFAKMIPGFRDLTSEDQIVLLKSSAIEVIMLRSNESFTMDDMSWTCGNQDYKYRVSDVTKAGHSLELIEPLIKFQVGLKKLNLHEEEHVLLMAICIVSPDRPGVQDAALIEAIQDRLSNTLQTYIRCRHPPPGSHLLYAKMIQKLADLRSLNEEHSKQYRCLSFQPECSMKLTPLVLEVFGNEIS
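Fluorescence polarization assay of small-molecule disruption of VDR binding to coregulator peptide SRC2-3. Compounds and controls pin-transferred, then read after 2 h incubation at ambient room temperature.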
Active calls of the source: *; ? = inconclusive; & = joins results of further samples; [ ] = another dose, or the depositor's remark. On the % scale 0 is the no-effect control and ±100 the full control effect; potency means the concentration at half of the fitted maximal effect. Not all compounds are listed. The share of hits here may be higher or lower than overall.

Structure | VDR inhibitor
O=C(NCc1nnc(SCC(=O)N2CCCc3ccccc32)o1)c1ccccc1F | 0%
O=C(CCc1ccccc1)N1CCN(c2ccc([N+](=O)[O-])cc2)CC1 | -5%
COc1cc(C(=O)Nc2cc(C)ccc2C)ccc1OCc1c(C)noc1C | 8%
CC(C)(C)CC(=O)NCC(c1ccc2c(c1)OCO2)N1CCOCC1 (configuration not stated) | 4%
[O-][n+]1onc2c1CCc1[nH]c(-c3ccccc3)nc1-2 | 11%
COc1cc(NS(=O)(=O)c2ccc(OC)c(OC)c2)cc(OC)c1 | -9%
Cn1nc(C(F)(F)F)c(-c2ccc(F)cc2)c1NC(=O)c1ccco1 | 1%
O=C(CSc1cn(CCNC(=O)c2cccc(C(F)(F)F)c2)c2ccccc12)Nc1ccc2c(c1)OCCO2 | 7%
CN(C)c1ccc(C(CNS(=O)(=O)c2ccc(F)cc2)c2c[nH]c3ccccc23)cc1 (configuration not stated) | -10%
Cc1c(C(=O)O)sc(S(=O)(=O)N2CCN(C(=O)Cc3ccc(Cl)cc3)CC2)c1C(=O)O | 5%
CCOC(=O)C1CCN(C(=O)c2cc3cc4ccc(C)cc4nc3o2)CC1 | 3%
CCOc1cc(/C=C(\C#N)C(=O)Nc2ccc(OC)cc2)ccc1OCc1cc(=O)n2nc(CC)sc2n1 | -23%
O=C(c1cc2nc(-c3ccc(F)cc3)cc(C(F)(F)F)n2n1)N1CCCCC1c1cccnc1 (configuration not stated) | 8%
Cc1ccc(C(=O)Oc2ccc([N+](=O)[O-])cc2)cc1S(=O)(=O)N1CCCCCC1 | -10%
O=C(Nc1ccc(OCc2ccccc2)cc1)c1cccnc1 | -5%
CCCCOc1ccc(C(=O)N/C(=C/C=C/c2ccccc2)C(=O)NCCO)cc1 | -8%
c1ccc(-c2cc(N3CCCCC3)nc(-c3ccccc3)n2)cc1 | ?
CC(C)N(C(=O)CSc1nnc(Cc2ccc3c(c2)OCO3)n1C)C(C)C | -4%
Cc1cc2n(n1)SC(Nc1ccc(F)c(Cl)c1)N2 (configuration not stated) | -19%
CS(=O)(=O)Nc1ccccc1C(=O)Nc1ccc2c(c1)OCCO2 | 20%

Structure | VDR inhibitor
CCOC(=O)N1CCN(c2c(NCc3cccs3)c(=O)c2=O)CC1 | -1%
COc1ccc(-c2noc(CNC(=O)c3ccoc3C)n2)cc1OC | -4%
CCOc1cc(N2CCOCC2)c(OCC)cc1NC(=O)COc1ccccc1[N+](=O)[O-] | -20%
COc1c(O)c(O)c2cc(OC)c3c(OC)cc(=O)c4c5c(=O)c(OC)c(C(C)=O)c6c5c(c1CC=6C)c2c34 | ?
CN1CCc2c(OCC(=O)N3CCCc4ccccc43)cccc2C1=O | -13%
Cc1ccc(NC(=O)CN2CCN(c3ccccn3)CC2)cc1S(=O)(=O)N(C)C | 4%
O=C(Nc1ccccn1)[C@@H]1CCC(=O)N1C(=O)OCc1ccccc1 | -13%
CN(Cc1ccccc1)c1nc2c(c(=O)[nH]c(=O)n2C)n1CCCc1ccccc1 | 9%
O=C(Nc1ccc2c(c1)C(=O)NC2=O)c1ccc(Cl)s1 | -8%
CCCCN1C(N)=NC[C@@H]1Cc1ccc(O)cc1 | 6%
Cc1c(NC(=S)/C=C2\N(C)c3ccccc3C2(C)C)c(=O)n(-c2ccccc2)n1C | -9%
Cc1ccc(S(=O)(=O)/N=C(/Nc2ccc3[nH]c(=O)[nH]c3c2)c2ccccc2)cc1 | ?
O=C(CSCc1ccccc1)NCCCN1CCOCC1 | 12%
CCn1c(SCC(=O)N2CCOCC2)nc2ccccc21 | 12%
O=C(c1cccnc1)N1CCN(c2ccc(Cl)cc2)CC1 | -4%
O=C(NC1CCCCC1)c1cc2ccccc2cc1O | -2%
CCc1ccc(NC(=O)CN2C(=O)C3CCCN3c3ccc(S(=O)(=O)N(CC)CC)cc32)cc1 (configuration not stated) | -1%
COc1cc(OC)cc(C(=O)NCCOC23CC4CC(CC(C4)C2)C3)c1 | 6%
CC(C)CNS(=O)(=O)c1ccccc1C(=O)N1CCCCC1 | 14%
CCOC(=O)Cn1c(=NC(=O)C2CC2)sc2c(C)cc(C)cc21 | -12%

Structure | VDR inhibitor
C=CCn1c(CSc2ccc(C)cc2)n[nH]c1=S | -12%
O=C(Nc1ccc(Cc2ccc(NC(=O)N3CCOCC3)cc2)cc1)N1CCOCC1 | 1%
CCCNC(=O)CN(C)C(=O)c1n[nH]c2ccccc12 | 7%
CN(C)CCNC(=O)c1ccc(COCC(F)(F)F)cc1 | 14%
CCOC(=O)C(Cc1ccc(NC(=O)/C(=C/c2ccccc2)NC(=O)c2ccccc2)cc1)N1C(=O)c2ccccc2C1=O (configuration not stated) | 1%
COC(=O)c1cc(NC(=O)Cn2c(=O)cnc3ccccc32)cc(C(=O)OC)c1 | 0%
COc1ccccc1CC(=O)Nc1ccc(F)cc1F | 12%
CC(C)Cn1cc(C(=O)NCCCN2CCC(C)CC2)c2c3ccccc3n(C)c2c1=O | -7%
COc1ccc(/C=C/C(=O)OCC(=O)NCCC2=CCCCC2)cc1 | 2%
O=C1NC[C@@H](Cc2ccc(O)cc2)N(CCc2cccc3ccccc23)C1=O | 3%
O=C(O)CCCn1cc(NC(=O)COc2ccc([N+](=O)[O-])cc2)cn1 | 6%
O=C1CCNc2c(Cl)cccc21 | -14%
O=C(Nc1ccccn1)C12CC3CC(C1)CC(C(=O)Nc1ccccn1)(C3)C2 | 2%
O=c1[nH]c(/C=C/c2ccc(Cl)cc2Cl)c([N+](=O)[O-])c(=O)[nH]1 | 18µM*
CCOC(=O)c1[nH]c2c(c1Cc1ccccc1OC)C(=O)CC(c1ccc(OCC)cc1)C2 (configuration not stated) | -5%
N/C(=N\O)c1ccc(NC(=O)c2ccc(Br)o2)cc1 | ?
CC(=O)Nc1ccc(NC(=O)C2CCCN2S(=O)(=O)c2cccc3nsnc23)cc1 (configuration not stated) | -11%
CCn1ccnc1CN(C)C(=O)c1cc(COc2ccccc2SC)on1 | 7%
CCCN1CCN(CCCNC(=O)Cn2nc(CC)n3c(cc4occc43)c2=O)CC1 | -3%
COc1ccc(C2/C=C\CN(C(=O)C3CC3)CC(=O)N2Cc2ccc(F)cc2)cc1 (configuration not stated) | -10%&-2%

Structure | VDR inhibitor
CCCn1c(=O)c2[nH]c(-c3ccccc3)nc2n(CCC)c1=O | 7%&12%
Cc1ccc(S(=O)(=O)N(CC(O)Cn2c3ccccc3c3ccccc32)c2cccc(C(=O)NCCO)c2)cc1 (configuration not stated) | -7%
CCc1nnc2c(N(C)S(=O)(=O)c3ccc(C)cc3)nc3ccccc3n12 | 10%
c1cncc(-c2ccc3[nH]ccc3c2)c1 | 17%
CN1CCN(C(=O)c2ccccc2NC(=O)c2ccccc2)CC1 | 7%
Cc1cccnc1NC(=O)CCCN1C(=O)c2ccccc2C1=O | 0%
COc1cc2c(cc1NC(=O)/C=C/c1cc(OC)c(OC)c(OC)c1)oc1ccccc12 | 7%
O=C(CN1CCC(C(=O)c2cccc(F)c2)CC1)NCc1cccs1 | 10%
Cn1cc(CN2CCC(Oc3ccc(C(=O)N4CCCCC4)cc3)CC2)cn1 | 4%
O=C(/C=C/c1cccs1)c1ccc(N2CCOCC2)cc1 | -9%
Cc1ccc(C)c(-n2c(CNC(=O)c3ccco3)nnc2SCC(=O)N2CCc3ccccc32)c1 | -23%
O=C(N/N=C/c1ccc([N+](=O)[O-])o1)c1cc(-c2cccc(Br)c2)nc2ccccc12 | 5%
Cc1ccc(NC(=O)CN2c3cccc4cccc(c34)S2(=O)=O)cc1 | 14%
CCC1=Nc2cc(C(=O)NCCN3CCCC3)ccc2Sc2ccc(C)cc21 | -17%
Cc1nc2cc(-c3ccccc3)nn2c(C)c1CCC(=O)N1CCN(c2ccc(F)cc2)CC1 | -14%
Cc1ccc(S(C)(=O)=O)cc1C(=O)Nc1cccc(S(=O)(=O)N2CCCCCC2)c1 | 1%
CCOC(=O)c1c(NC(=O)CCC(=O)O)sc2c1CC(C)(C)OC2 | 4%
COc1cccc(NC(=O)CSc2nncn2-c2ccccn2)c1 | 0%
O=C(O)c1ccc2c(c1)-c1nc3ccccc3n1C2=O | 60%[activator]
CCC(C)NC(=S)Nc1ccc2nc(N3CCN(CC)CC3)cc(C)c2c1 (configuration not stated) | -11%

Shown as a hit in VDR inhibitor, of those listed so far:
Structure | VDR inhibitor
O=c1[nH]c(/C=C/c2ccc(Cl)cc2Cl)c([N+](=O)[O-])c(=O)[nH]1 | 18µM*

(further entries)
Structure | VDR inhibitor
COc1ccc(C(CNC(=O)C(=O)Nc2ccc3c(c2)OCO3)N2CCN(C)CC2)cc1 (configuration not stated) | -10%
CCOC(=O)c1cc2c(=O)[nH]ccc2nc1C(F)(F)F | 9%
COc1cc(C=O)cc(Cl)c1OC(=O)N1CCOCC1 | -9%
Nc1nnc(SCC(=O)Nc2ccc(N3CCOCC3)c(Cl)c2)s1 | -1%
Oc1ccc(NC(=S)N=Nc2c(O)[nH]c3ccc(Br)cc23)cc1 | -4%
Cc1ccc(CCN2C(=O)CCC2(C)C(=O)NCc2cccnc2)cc1 (configuration not stated) | -2%
CCOc1nc(Nc2ccc(OC)c(Cl)c2)nc(N2CCN(c3ccc(OC)cc3)CC2)n1 | 10%
COc1ccc(S(=O)(=O)Nc2cccc(N(C)S(C)(=O)=O)c2)cc1C | -11%
Cc1ccc(-n2c(C3CC3c3ccc(Cl)cc3)n[nH]c2=S)cc1 (configuration not stated) | 3%
COc1ccc(N(CC(=O)Nc2cc(OC)ccc2OC)S(C)(=O)=O)cc1 | -18%
COc1ccccc1NC(=S)NC(=O)c1ccc(-c2ccc(Cl)cc2)o1 | 7%
O=C(NC1CCCCC1)c1sc(N2CCOCC2)nc1-c1ccccc1 | -8%
CCC1(c2ccccc2)NC(=O)N(CC(=O)Nc2cc(Cl)ccc2N2CCOCC2)C1=O (configuration not stated) | -2%
CC(NC(=O)c1cccc(S(=O)(=O)N2CCc3ccccc3C2)c1)c1ccco1 (configuration not stated) | -12%
COc1ccccc1NC(=O)CSc1nc2ccccc2cc1Cc1ccccc1 | -2%
CCN(CC)Cc1c(C(=O)N/N=C/c2cccc(OCc3ccc(F)cc3)c2)nnn1-c1nonc1N | -1%
COc1ccc(OC)c(NC(=O)COC(=O)/C=C/c2ccco2)c1 | -14%
OCCN1CCN(CC(O)C(F)(F)F)CC1 (configuration not stated) | -11%
COc1cc(CC(NC(C)=O)C(=O)NC2CCN(S(=O)(=O)c3ccc(NC(C)=O)cc3)CC2)cc(OC)c1 (configuration not stated) | -9%
O=C(N/N=C/c1cccc(F)c1)NC1CCCCC1 | 2%

Structure | VDR inhibitor
O=C(Cn1cc(COc2c(F)c(F)cc(F)c2F)nn1)c1ccc(O)cc1 | -4%
C/C(=N\NC(=O)c1ccc(Cn2cc([N+](=O)[O-])cn2)o1)c1cccc(NC(=O)C(C)C)c1 | 1%
CCn1cc(C(=O)N2CCOCC2)c(=O)c2cc(S(=O)(=O)N(C)C)ccc21 | -17%
COc1cccc2c1Oc1ncccc1N(C(=O)CCC(=O)NCc1ccc(F)cc1)C2 | 2%
Cc1c(Cc2ccccc2)c(=O)oc2cc(OCC(=O)c3ccccc3)ccc12 | -16%
COc1ccc(NC(=O)CN(C)C(=O)CNC(=O)c2ccc3ccccc3c2)cc1 | 6%
O=C(COC(=O)c1ccc(Cl)c(S(=O)(=O)N2CCCCC2)c1)NCC1CCCO1 (configuration not stated) | -3%
N=C(N)SCC1=CCS(=O)(=O)C1 | 10%
COc1ccccc1OCC(=O)NNC(=O)Nc1ccc(Cl)cc1 | 1%
Cc1ccc(NC(=O)CCNC(=O)c2ccc([N+](=O)[O-])cc2)cc1S(=O)(=O)N1CCOCC1 | -9%
O=C(NC(CSSCC(NC(=O)c1ccccc1)C(=O)O)C(=O)O)c1ccccc1 (configuration not stated) | -19%
Cc1cccc(OCCNS(=O)(=O)c2ccc(Cl)cc2)c1 | 4%
O=C(CSc1nc(-c2ccco2)cc(C(F)(F)F)n1)Nc1ccc2c(c1)CCC2 | 3%
O=C(Nc1cccnc1)c1cc(F)cc(F)c1 | 1%
COc1cc(OC)cc(C(=O)NCc2nc(-c3ccccc3)no2)c1 | 1%
COc1ccc(-c2nnc(SCC(=O)Nc3cc(C)on3)o2)cc1 | -5%
CC1=CC(=O)C=C(C)C1=NOc1ccccc1[N+](=O)[O-] | -11%
COc1ccccc1CNS(=O)(=O)c1c(C(=O)N2CCCC2)c(C)n(C)c1C | 0%
N/C(=N\S(=O)(=O)c1cc(C(F)(F)F)cc(C(F)(F)F)c1)c1ccc(Cl)cc1 | 6%
C/C=C/C(=O)OCC(=O)Nc1cc(OC)c([N+](=O)[O-])cc1C | -6%
CN(C)S(=O)(=O)c1ccc(N)c([N+](=O)[O-])c1 | -14%

Some of the entries above, reformatted.
mol: CCOC(=O)C1CCN(C(=O)c2cc3cc4ccc(C)cc4nc3o2)CC1
  VDR inhibitor = 3%
mol: CN(C)S(=O)(=O)c1ccc(N)c([N+](=O)[O-])c1
  VDR inhibitor = -14%
mol: CN1CCN(C(=O)c2ccccc2NC(=O)c2ccccc2)CC1
  VDR inhibitor = 7%
mol: CC(C)CNS(=O)(=O)c1ccccc1C(=O)N1CCCCC1
  VDR inhibitor = 14%
